KDM4E inh = qHTS Assay for Inhibitors of Human Jumonji Domain Containing 2E (JMJD2E); Lysine-specific demethylase 4E (Homo sapiens), B2RXH2; JMJD2E catalytic domain, FDH-coupled NADH fluorescence (FDH is formaldehyde dehydrogenase); Potency, µM (highest dose often 57.1 µM), for inactives: at the top dose activity change, negative = inhibition, most hits filed as inhibitors; 1.6% of 230,000 active; AID 2147, 2009; active = well fitted inhibition curve with a large enough effect, not every such curve was filed as active; inconclusive = small, poorly fitted or top-dose-only effect, or another doubt; inactive = no such curve, though single readings can be large or run the other way;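 also: 0% = wells with enzyme and -100% = buffer wells without enzyme; nearly all actives have a fitted effect of over 50% in size; many of its hits are not listed in these tables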
Target sequence (B2RXH2 1-337 limits assumed): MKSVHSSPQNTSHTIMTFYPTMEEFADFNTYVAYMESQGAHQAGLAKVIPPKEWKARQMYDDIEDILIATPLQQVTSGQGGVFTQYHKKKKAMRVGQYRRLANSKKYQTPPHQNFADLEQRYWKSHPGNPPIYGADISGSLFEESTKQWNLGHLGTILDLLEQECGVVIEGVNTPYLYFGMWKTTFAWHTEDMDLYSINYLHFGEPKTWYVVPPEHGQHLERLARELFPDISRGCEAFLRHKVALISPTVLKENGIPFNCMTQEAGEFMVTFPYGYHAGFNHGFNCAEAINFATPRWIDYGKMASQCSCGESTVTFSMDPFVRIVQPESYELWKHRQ
Tau FP inhib = qHTS for Inhibitors of Tau Fibril Formation, Fluorescence Polarization | K18 P301L tau heparin fibrillization, Alexa594 FP, 6 h | Microtubule-associated protein tau (Homo sapiens), P10636 | 0.39% of 280,000 active | AID 1468, 2008 | Potency, µM (top dose mostly 57.7 µM), for the others: at the highest dose activity, negative = inhibition, hits mostly inhibitors; also: % is scaled to controls: 0 for no effect and ±100 for the full control effect; nearly all actives have a fitted effect of over 55% in size
Target sequence (P10636 561-689 P618L limits assumed): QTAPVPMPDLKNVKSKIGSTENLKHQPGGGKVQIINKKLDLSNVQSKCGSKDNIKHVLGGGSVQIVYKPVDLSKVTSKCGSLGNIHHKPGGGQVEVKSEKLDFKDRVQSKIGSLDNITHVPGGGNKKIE
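Human K18 P301L fragment (15 uM unlabeled plus 0.24 uM Alexa 594-labeled) in 100 mM sodium acetate pH 7 with compound, aggregation induced by 20 uM heparin for 6 hr at 37 C. ThT (30 uM) added for 1 hr, then Alexa 594 FP read.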
Tau fluor cs = Counterscreen qHTS for Inhibitors of Tau Fibril Formation, Fluorescence Polarization; tau K18 P301L Alexa594 fluorescence, heparin fibrillization; Potency, µM (series often up to 57.7 µM), for the others: at the top dose activity change, negative = decrease; 0.93% of 280,000 active; AID 1463, 2008; also: % is scaled to controls: 0 for no effect and ±100 for the full control effect; nearly all actives have a fitted effect of over 55% in size
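Human tau K18 P301L (15 uM unlabeled, 0.24 uM Alexa 594-labeled) in 100 mM sodium acetate pH 7 with 20 uM heparin, 6 hr at 37 C. ThT 30 uM added, 1 hr ambient; Alexa 594 FP and total fluorescence read at 555/632 nm.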
HTT aggregate = qHTS Multiplex Assay to Identify Dual Action Probes in a Cell Model of Huntington: Aggregate Formation (GFP); PC12 HttQ103-GFP aggregates, Acumen cytometry, 40 h; 1.1% of 220,000 active; Potency, µM (highest dose often 46.1 µM), inactives show top-dose activity change, negative = inhibition, most hits filed as inhibitors; also: % is scaled to controls: 0 for no effect and ±100 for the full control effect; nearly all actives have a fitted effect of over 60% in size
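Huntingtin Q103 exon 1–GFP aggregates in induced PC12 cells (100 nM tebufenozide) were quantified by cytometry from lysates, with compounds dosed in titration.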
HTT ATP protect = qHTS Multiplex Assay to Identify Dual Action Probes in a Cell Model of Huntington: Cytoprotection (ATP) | PC12 HTT-Q103 induced, cytoprotection, ATP luminescence, 40 h | Potency, µM (series often up to 56.4 µM), for inactives: cytoprotection (ATP increase), usual class: activators | 0.14% of 230,000 active | AID 1471, 2008;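 also: % of control where 0% means no effect; nearly all actives have a fitted effect of over 45% in size; toxic huntingtin expression switched on by the ecdysone agonist tebufenozide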
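PC12 cells with ecdysone-inducible HTT exon 1 Q103-GFP, induced with 100 nM tebufenozide and co-treated with library compounds in a dose series (1536-well, 1500 cells/well). Cytoprotection read as ATP content by ATPlite luminescence.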
Tau fibril ThT = qHTS for Inhibitors of Tau Fibril Formation, Thioflavin T Binding | Potency, µM (top dose mostly 57.4 µM), for inactives: at the top dose activity, negative = inhibition, usual class: inhibitors | 2.1% of 270,000 active | recombinant tau K18 P301L, heparin-induced fibrillization, ThT fluorescence | AID 1460, 2008 | Microtubule-associated protein tau (Homo sapiens), P10636; also: % is scaled to controls: 0 for no effect and ±100 for the full control effect; nearly all actives have a fitted effect of over 55% in size
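Using a mix of unlabeled (15 uM) and Alexa 594-labeled (0.24 uM) tau K18 P301L, heparin-triggered fibrillization over 6 hr at 37 C was scored by ThT fluorescence.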
SMN2 splice enh = qHTS Assay for Enhancers of SMN2 Splice Variant Expression | 2.8% of 210,000 active | Potency, µM (titrated, usually from 46.1 µM), for inactives: at the highest dose activity change, positive = activation, actives largely listed as activators | AID 1458, 2008 | HEK293 SMN2-luciferase splicing reporter, luminescence, 30-36 h; also: % of control where 0% means no effect; nearly all actives have a fitted effect of over 55% in size
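qHTS luciferase splicing reporter: luminescence rises when SMN2 exon 7 is included in transfected HEK293 cells. Compound exposure lasted 30-36 h at 37C, with 4.5 mM final sodium butyrate as control, followed by a ONE-Glo read.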
Active calls of the source: *; ? = inconclusive; . = no result given; [ ] = dose if it differs, or a comment. Unless noted, calls follow the shape of the dose curve; as a rule, active = well fitted curve in the direction sought with a large enough effect; inconclusive = small, poorly fitted or top-dose-only effect, or another doubt; inactive = no such curve, though single readings can be large; an effect the other way counts as inactive or inconclusive. Potency is read from the fitted curve at half-maximal effect.

Each structure is followed by: HTT ATP protect | SMN2 splice enh | KDM4E inh | Tau FP inhib | Tau fibril ThT | Tau fluor cs | HTT aggregate
- CN1CCN(c2ccc(Cl)cc2NC(=O)CCN2C(=O)c3ccccc3C2=O)CC1
→ 12% | 3% | -9% | 3% | ? | -17% | -3%
- C/C(=N\N=C(/N)SC1CC(=O)N(c2ccccc2)C1=O)c1cccs1 (configuration not stated)
→ 0% | -2% | -13% | -14% | -13% | ? | 1%
- COC(=O)CC/C(O)=C1\C(=O)CC(C)(C)CC1=Nc1ccccc1OC
→ -4% | ? | 1% | -7% | -15% | -12% | 7%
- CCNC(=O)/C(=C\C=C\c1ccccc1)NC(=O)c1ccc(Br)o1
→ . | -7% | -6% | 3% | 1% | 9% | -3%
- O=C(N/N=C\c1ccccc1)c1ccccc1-n1cccc1
→ -24% | -4% | -7% | 0% | -2% | -3% | 12%
- O=C(Cn1ccc([N+](=O)[O-])n1)Nc1nc2ccccc2s1
→ -14% | -13% | -3% | 4% | -20% | -16% | -2%
- O=C(COc1ncnc2sccc12)Nc1ccc(F)cc1F
→ 2% | -1% | 2% | 11% | 2% | -5% | 4%
- CCCN1CCN(CCCNC(=O)C2CCCN(c3nnc(-n4cccc4)s3)C2)CC1 (configuration not stated)
→ -4% | -2% | 0% | -9% | -5% | -8% | 13%
- CC1(C)CC2(CC(c3cccs3)c3cc(Cl)c(O)cc3O2)NC(=S)N1 (configuration not stated)
→ -67%[inhibitor] | -14% | 5% | 2% | -6% | -14% | 25%
- CC(=O)C1=C(Nc2ccc(C)cc2)CC(C)(O)C(C(C)=O)C1c1ccco1 (configuration not stated)
→ 1% | 0% | 9% | 4% | -14% | -15% | -14%
- COC(=O)c1ccc(NC(=S)N2CCCC2)cc1
→ -24% | 11% | -10% | 9% | -3% | 7% | 5%
- COc1ccc(C(CC(=O)NCCCN2CCOCC2)NS(=O)(=O)c2ccc(C)cc2)cc1 (configuration not stated)
→ 3% | -4% | -1% | 6% | -6% | -3% | 1%
- Cc1cccc(C)c1NC(=O)C1(N(Cc2ccco2)C(=O)Cn2nnnc2N)CCCCC1
→ . | -17% | -1% | -4% | -8% | -9% | 36%
- O=C(Nc1cccc(-c2cnc3ccccc3n2)c1)c1ccncc1
→ -91%[inhibitor] | 4% | 3% | -13% | -4% | -7% | 2%
- CCOc1ccccc1NC(=O)NCCC1=CCCCC1
→ -17%[10 µM] | -19% | 2% | 9% | -10% | -11% | 1%[9.22 µM]

2 compounds from above, limited to HTT ATP protect, SMN2 splice enh and KDM4E inh:
Molecule,HTT ATP protect,SMN2 splice enh,KDM4E inh
C/C(=N\N=C(/N)SC1CC(=O)N(c2ccccc2)C1=O)c1cccs1 (configuration not stated),0%,-2%,-13%
COc1ccc(C(CC(=O)NCCCN2CCOCC2)NS(=O)(=O)c2ccc(C)cc2)cc1 (configuration not stated),3%,-4%,-1%

The listing continues.
Each structure is followed by: HTT ATP protect | SMN2 splice enh | KDM4E inh | Tau FP inhib | Tau fibril ThT | Tau fluor cs | HTT aggregate
- COC(=O)c1ccccc1NC(=O)Nc1cccc(C)n1
→ 2% | . | ? | -10% | 4% | -3% | -9%
- Nc1nnc(CCS(=O)(=O)c2ccc(Br)cc2)s1
→ . | 13% | -30% | 7% | 0% | 9% | 23%
- O=C(NC1(C(F)(F)F)NC(=O)N(c2ccc(F)c(Cl)c2)C1=O)c1ccncc1 (configuration not stated)
→ -28% | -5% | 6% | 4% | 13% | 4% | 18%
- CCn1nc(C)c(CNC(=O)Nc2ccc3c(c2)OCO3)c1C
→ -70%[inhibitor] | ? | 7% | 2% | -8% | -11% | 5%
- O=c1[nH]c2ccccc2nc1/C=C(\O)c1cccs1
→ -11%[10 µM] | . | ? | ? | -16% | -18% | 11%[9.22 µM]
- CCOc1ccccc1-n1c(COc2ccc(C)cc2)nnc1SCC(N)=O
→ 32%[10 µM] | 9% | 3% | 7% | -4% | 2% | -17%
- COC(=O)c1ccc(NC(=S)NC2CCCCC2C)cc1 (configuration not stated)
→ 13%[1.9 µM] | 3% | 7% | -12% | -4% | ? | 1%
- CC(=O)c1cc(-c2ccc(F)cc2)n(CC(=O)NCc2cccs2)c1C
→ -31% | -10% | -1% | -1% | 3% | 4% | -3%
- CCN(CC)C(=O)Cn1cc(S(=O)(=O)CC(=O)NC2CCCCC2)c2ccccc21
→ 6% | 5% | 10% | -1% | 1% | 7% | 4%
- CSc1nc(-c2ccccc2)ccc1C(N)=O
→ -14%[0.074 µM] | 26% | ? | 9% | -2% | 3% | -20%
- CCOC(=O)N1CCN(S(=O)(=O)c2ccc(C)c(C)c2)CC1
→ -5%[0.074 µM] | -18% | -7% | 1% | -7% | -4% | -6%
- C/C(=N/NC(=O)CNC(=O)c1ccccc1)c1ccc(C)cc1
→ 12% | -28% | 0% | 7% | 7% | 4% | -30%
- O=C(COC(=O)CNC(=O)c1ccc(F)cc1)Nc1cccc(S(=O)(=O)N2CCCC2)c1
→ -22% | . | -29% | -15% | -4% | -22% | -3%
- N#Cc1c(-c2ccc3c(c2)OCO3)csc1N
→ -6% | -2% | -6% | 6% | ? | -27% | ?
- COc1ccccc1C(=O)n1nc(-c2ccccc2)nc1N
→ 0%[10 µM] | 17% | -4% | -3% | -1% | 0% | -7%

Individual results from the results shown.
O=C(NC1(C(F)(F)F)NC(=O)N(c2ccc(F)c(Cl)c2)C1=O)c1ccncc1 (configuration not stated) – Tau fluor cs = 4%
CCN(CC)C(=O)Cn1cc(S(=O)(=O)CC(=O)NC2CCCCC2)c2ccccc21 – Tau FP inhib = -1%

Further compounds.
Each structure is followed by: HTT ATP protect | SMN2 splice enh | KDM4E inh | Tau FP inhib | Tau fibril ThT | Tau fluor cs | HTT aggregate
- O=C(NCC(c1cccnc1)N1CCOCC1)c1cccc(Cl)c1 (configuration not stated)
→ 12% | -4% | 2% | 5% | -4% | 0% | -1%
- COc1ccc(N(CC(=O)Nc2cccc(N(C)S(C)(=O)=O)c2)S(C)(=O)=O)cc1OC
→ -28%[0.074 µM] | 2% | 5% | 5% | -5% | 1% | 4%
- COc1ccc(NC(C)C(=O)Nc2cc(C(F)(F)F)ccc2N2CCOCC2)c(OC)c1 (configuration not stated)
→ 36%[10 µM] | -13% | -2% | 9% | -13% | -30% | -14%
- Cc1ccc2c(c1)C(c1ccncc1)=NNC(c1ccc(C(C)C)cc1)=N2
→ -26% | -2% | -1% | 0% | ? | -10% | 10%
- CC(C)C(c1nnnn1CCc1ccccc1)N1CCC(C(N)=O)CC1 (configuration not stated)
→ -13%[10 µM] | . | 8% | -5% | 7% | 10%[2.34 µM] | -1%[9.22 µM]
- CCNS(=O)(=O)c1ccc(NC(=O)Nc2cccc(C(F)(F)F)c2)cc1
→ -23% | -5% | -1% | 25µM* | 14% | ? | ?
- O=C(NCc1ccc2[nH]c3c(c2c1)CCCC3)c1ccc(S(=O)(=O)N2CCOCC2)cc1
→ . | -22% | -9% | 13% | -15% | ? | -11%
- O=C1c2ccccc2C(O)N1Cc1ccco1 (configuration not stated)
→ 5%[10 µM] | -1% | 11% | -2% | -5% | 8% | -11%
- O=C(CN1CCN(Cc2ccc(F)cc2)C1=O)NCc1cccs1
→ -8% | -12% | 5% | 8% | 5% | 3% | 5%
- O=C(CSc1ncccn1)N1CCN(C(=O)CSc2ncccn2)CC1
→ -6%[10 µM] | 3% | 2% | 7% | -3% | 4% | -8%
- COC(=O)c1sccc1NC(=O)c1ccoc1C
→ -9% | -12% | -17% | 4% | -12% | -8% | -13%
- CCOC(=O)N1CCC(Nc2cccc(SC)c2)CC1
→ 4% | -5% | ? | -4% | -14% | -14% | -18%
- CCC(C)C(=O)Nc1ncc2c(n1)CC(c1cccs1)CC2=O (configuration not stated)
→ 3% | -11% | -4% | 2% | -7% | -2% | 16%
- c1ccc(-c2n[nH]nc2-c2ccccc2)cc1
→ -19% | 14% | -11% | -3% | -5% | -11% | -19%
- CCNS(=O)(=O)c1ccc(-c2ccc(-n3cnnn3)cc2)cc1
→ ? | . | ? | -10% | -1% | -5% | 4%
- Cc1cccc(-c2nnc(SCC#N)n2Cc2ccccc2)c1
→ 23% | 5% | 1% | 0% | -13% | 0% | ?
- Cc1cc(C)c2c(=O)[nH]c(SCc3ccc([N+](=O)[O-])cc3)nc2n1
→ -18% | -8% | 5% | -7% | -12% | -16% | -8%
- COc1cc(OC)cc(C(C(=O)NC2CCCCC2)N(C(=O)c2ccno2)c2ccccc2)c1 (configuration not stated)
→ -17%[10 µM] | 6% | 0% | 8% | -6% | -15% | -4%
- O=C(O)CCS(=O)(=O)c1ccc(-c2ccccc2)cc1
→ 20%[10 µM] | 1% | 5% | 3% | -4% | -1% | -3%
- COc1cccc(C(=O)Nc2nc3c(c(=O)[nH]2)CCCC3)c1
→ -3% | -6% | -4% | ? | ? | -15% | 6%
- O=C(Cc1ccc(Cl)cc1)Nc1nc2ccccc2[nH]1
→ 4% | 22% | ? | -8% | -5% | -4% | 5%
- COc1cc(C(F)(F)F)c(C(=O)N(C)Cc2ccc(Cl)c(Cl)c2)cn1
→ 7%[10 µM] | . | 7% | 0% | -10% | -15% | -1%[9.22 µM]
- O=C(N/N=C1/CCCc2ccccc21)c1cc([N+](=O)[O-])cc([N+](=O)[O-])c1
→ . | 21% | -11% | 2% | 2% | -2% | 12%
- CC(C)N(Cc1nc(-c2ccccc2)no1)C(=O)CN1C(=O)c2ccccc2C1=O
→ 8% | -10% | -3% | 1% | -1% | -7% | 12%
- CCOc1cccc(NC(=O)CSc2nncn2N)c1
→ -11%[10 µM] | -2% | 3% | 0% | -6% | -4% | -7%
- O=C(NCC1CCCO1)C1CC(c2ccc(Cl)c(Cl)c2)=NO1 (configuration not stated)
→ 18% | 5% | 11% | 0% | -1% | 3% | ?
- CO/N=C/NC(=O)NOCc1ccc(Cl)cc1Cl
→ 0% | -1% | 1% | 5% | -9% | -5% | -5%
- CC(C)(C)NC(=O)COc1ccc(CNCc2cccnc2)cc1
→ 13%[10 µM] | . | ? | -6% | -12% | -10% | 21%[9.22 µM]
- O=C(COC(=O)/C=C/c1ccc([N+](=O)[O-])cc1)NCc1ccco1
→ -4%[10 µM] | . | 2% | 4% | -22% | -18% | 3%[9.22 µM]
- COc1cccc(CNc2nc3ccccc3n2CCN2CCCCC2)c1
→ -4%[0.074 µM] | 1% | 1% | -10% | 6% | -4% | -12%

Assay outcomes as filed in PubChem.

This is a subset; the hit share may differ from the screen's.
